PrP UTR inh: inhibition of PrP 5' UTR reporter expression; AID 488862; inhibition, % (no concentration beside the values); hit rate 0.35% among 340,000; cell-based PrP 5' UTR mRNA reporter, plate reader;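 active = every replicate at 50% or more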;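 note: 0 = median of the neutral control wells; tested in H4 reporter cells; numbers are from one replicate; inactives centre near -14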
Sa ugtP lethal: growth inhibition of S. aureus ugtP deletion strain | growth inhibition, % (concentration not given with the values) | S. aureus RN4220 ugtP deletion, OD600 growth, 16 h; some inactives read as strong as hits | hit rate 0.54% among 330,000;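 active = z-score under -3 and OD600 up to 0.15 on both plates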;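 note: plate controls were untreated wells for no effect and antibiotic for full effect; wells of about 80 µL received 100 nL stock; the first replicate is given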
Autofluor counter: compound fluorescence in toxin protease inhibitor counterscreen. compound autofluorescence counterscreen, microsphere flow cytometry; stronger effect = higher value. fluorescence intensity (concentration not given with the values). hit rate 3.1% among 360,000. AID 624483;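 active = at least 3 SD above the mean of all compounds, about 16000 in these data; inconclusive = too few beads counted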;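 note: 100 nL of 1 mM stock went into each well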
Mtb hypoxia rep: inhibitors of hypoxia-regulated fluorescent reporter in Mycobacterium tuberculosis; fluorescence inhibition, % (concentration not given with the values); AID 1159583; hit rate 0.1% among 300,000; M. tuberculosis hypoxia-regulated fluorescent reporter, fluorescence;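 active = 35 to 45% if threefold the growth effect, above 45% if 1.5-fold the growth effect; inactive = the rest, general growth blockers included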;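 note: wells of about 50 µL received 100 nL stock; 0% = vehicle wells and 100% = reference inhibitor wells; whole bacteria with a GFP reporter of the hypoxia response; strong numbers were not always called active; many hits fall short of the cut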
BJeLR viability: BJeLR cell viability loss; hit rate 0.17% among 300,000; inhibition, % (no concentration beside the values); AID 1554; BJeLR (HRASV12) viability, CellTiter-Glo ATP luminescence, 48 h; reference of the scale not given here;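 active = replicate mean above 50%; inconclusive = above 50% but judged a plate artefact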;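 note: 50 nL library stock added to about 25 µL; numbers are from one replicate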
Sa RN4220 lethal: kills Staphylococcus aureus RN4220. S. aureus RN4220 growth, OD600, 16 h. inhibition, % (concentration not given with the values). hit rate 0.33% among 330,000. AID 1259311;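 active = z-score of -3 or lower and OD600 up to 0.18 on both plates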;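 note: plate controls were untreated cells for no effect and reference antibiotic for full effect; stock transfer was 100 nL into about 80 µL; one replicate is shown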
Mtb hypoxia rep growth: also measured in Mtb hypoxia rep; calls as there; growth inhibition, %; measured here: M. tuberculosis growth (absorbance);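 0% = vehicle and 100% = reference antibiotic; read after six days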
Numbers without * were called inactive; ? = inconclusive; . = no result given.

SMILES	PrP UTR inh	Sa ugtP lethal	Autofluor counter	Mtb hypoxia rep	Mtb hypoxia rep growth	BJeLR viability	Sa RN4220 lethal
Cc1ccc(SCc2ccc(C(=O)Nc3nccs3)o2)cc1	-36	4	6196	16	-4	-8	3.9
N#Cc1ccc(C(=O)OCC(=O)Nc2cccc(S(=O)(=O)NC3=NCCC3)c2)cc1	-14	-8	?	-2	7	.	-2.6
COc1cccc(-c2nnc(SCC(=O)OC(C)C)n2N)c1	-17	1	19700*	13	10	-3	2.6
CC(CCc1ccccc1)NC(=O)CCC(=O)N1CCC(C(=O)O)CC1 (configuration not stated)	-12	16	3989	1	2	-1	4.0
CCCCC1CC1C(NC(=O)c1cccs1)c1ccc(C(F)(F)F)cc1 (configuration not stated)	.	3	.	0	-1	.	5.9
CCC(c1nnnn1CCOC)N1CCN(Cc2ccccc2)CC1 (configuration not stated)	-1	2	2760	.	.	5	3.2
O=C(Nc1ccc(Cl)cn1)c1ccccc1[N+](=O)[O-]	-21	2	3753	2	-2	6	1.1
CCCCCCn1c(N2CCCC2)nc2c1c(=O)n(C)c(=O)n2C	-9	10	3006	7	-3	0	5.1
CCC1(C)C(Nc2c(C)cccc2C)=NC(=S)N1c1ccc(NC(C)=O)cc1 (configuration not stated)	-7	16	1937	-5	-1	6	3.1
Cc1ccccc1CS(=O)(=O)Cc1ccc(C(=O)N2CCC3(CC2)OCCO3)o1	-4	-2	2428	-1	3	-1	-0.6
Cc1ccc(N(C(C)C(=O)Nc2c(C)n(C)n(-c3ccccc3)c2=O)S(C)(=O)=O)cc1C (configuration not stated)	-5	0	3470	3	8	4	1.8
CCn1c(CNC(=O)c2ccccc2Br)nnc1SCC(=O)Nc1nncs1	10	9	4471	-1	-1	-4	-0.8
COc1ccccc1CC(=O)N1CCN(C(=O)c2ccco2)CC1	-19	6	5623	1	1	-5	2.6
Cn1ccnc1SCC(=O)Nc1cccc(S(=O)(=O)N2CCCCCC2)c1	-7	10	3259	-1	1	-7	6.3
Cc1ccccc1N1CCN(C(=O)C2CCC(=O)N(C3CCCC3)C2)CC1 (configuration not stated)	-6	0	6248	16	5	9	3.2
CCOc1ccc(NS(=O)(=O)c2ccc3c(c2)n(C)c(=O)n3C)cc1	-22	11	3400	5	-9	-2	2.0
CCCC(=O)NNC(=O)Nc1ccccc1	-24	0	10420	3	-1	15	1.0
O=C(Nc1cccc(NC(=O)c2ccccc2Cl)c1)c1ccc([N+](=O)[O-])o1	-29	.	4126	.	.	2	.
COc1ccc(OCc2nnc(SCC(=O)Nc3nnc(C4CC4)s3)n2C)cc1	2	1	6039	12	3	-8	4.6
Cc1cc(C(=O)CSc2ccc(Cl)cc2)cc(C)c1OC(=S)N(C)C	-83	43	3428	6	8	13	-4.2
Cc1cc(C)n2nc(SCn3nnc4ccccc4c3=O)nc2n1	7	1	8709	-10	-2	-2	1.4
CS(=O)(=O)N(CC(=O)N1CCCCCC1)c1cccc(F)c1	-28	3	3013	15	6	0	1.9
O=[N+]([O-])c1ccccc1CNc1ccc(F)c(Cl)c1	-7	-12	2289	8	2	2	-3.4
Oc1ccc2ccccc2c1CNc1ccc(Br)cc1	.	4	.	4	-1	2	3.8
CN(C)c1ccc(/C=N/NC(=O)CNC(=O)c2ccc3c(c2)OCCO3)cc1	-23	.	2371	.	.	-3	.
COC(=O)C1=C(C)N(C)C(=O)NC1c1ccc([N+](=O)[O-])o1 (configuration not stated)	-18	6	2432	5	14	-6	8.2
CCOC(=O)c1ccccc1-c1cn2cc(Cl)ccc2n1	-9	-1	2592	6	7	-1	7.2
O=C(CCN1C(=O)COc2ccccc21)NCc1ccco1	-33	4	10601	9	6	6	7.0
CCCN1CCC(NC(=O)CC2C(=O)NCCN2Cc2cccc(OC)c2)CC1 (configuration not stated)	-19	10	3861	1	5	6	2.4
O=C(CN1CCN(Cc2ccccc2)CC1)N=Nc1c(O)[nH]c2ccccc12	-21	0	2008	-1	3	-23	2.4
COc1cc(Nc2c3ccccc3nc3ccccc23)cc(OC)c1OC	-21	8	3615	5	-1	0	-1.7
COc1ccc(/C=C\C(=O)c2c(O)ccc3c(C)cc(=O)oc23)cc1OC	-6	2	4646	.	.	-7	2.3
COc1ccc(C)cc1NC(=O)CSCc1ccccc1C	-16	4	3136	18	6	-7	5.0
CC(C)(C)CN1CCNCC1Cc1ccc(O)cc1 (configuration not stated)	.	0	.	8	10	.	1.2
COC(=O)C1=C(C(=O)OC)[C@@H]2N(C)c3ccc(OC)cc3[C@@]23C[C@@H](C(=O)OC)N(C(=O)c2cccs2)C3=N1	-19	.	4230	.	.	-1	.
CCCCN(C)Cc1cc(=O)oc2cc3c(cc12)CCCC3	-15	6	3980	9	-8	-6	7.5
OCCOc1ccc(CN2CCCC(N3CCN(c4ccc(F)cc4)CC3)C2)cc1 (configuration not stated)	-22	0	4394	-2	12	9	-2.5
S=C1NCN(Cc2ccco2)CN1Cc1ccco1	-13	4	3990	4	5	4	5.1
CCn1c(-c2ccccc2)c(C(=O)CC#N)c2ccccc21	-27	2	4903	-9	-3	-2	6.2
O=C(CN1CCCC1)N/N=C/c1c(O)ccc2ccccc12	28	.	3803	.	.	11	.
O=C(NCC(=O)N(c1ccc(F)cc1)C(C(=O)NC1CCCCC1)c1ccncc1)c1ccco1 (configuration not stated)	-9	7	4215	10	4	-13	-1.4
O=C(Nc1ccc2c(c1)OCO2)C1CCCN(c2nc3ccccc3s2)C1 (configuration not stated)	-5	-9	18282*	13	3	0	6.8
Cc1cc(C)c(NC(=O)COc2cccnc2[N+](=O)[O-])c(C)c1	-23	2	3970	17	9	.	3.3
COC(=O)c1cc(OC)c(OC)cc1NC(=S)Nc1cccc(C(C)=O)c1	-27	-5	11557	9	-7	.	1.4
COc1ccc2nc(NC(=O)c3ccc([N+](=O)[O-])o3)sc2c1	-8	100*	3924	18	15	-1	48
Cc1ccccc1NC(=O)Cc1nc(COC(=O)c2cc(Br)ccc2O)cs1	-10	4	9345	-4	6	.	3.9
COCCN1C=C(C(=O)OC)C(c2ccc(Cl)cc2)C(C(=O)OC)=C1	-15	2	3973	1	7	-1	4.2
CCCCN(CC)CCNC(=O)c1nn(-c2ccc(OC)cc2)c(=O)c2c1c1ccccc1n2C	-5	8	2074	-14	4	16	-0.6
Cn1c(=O)c(C(=O)NCCCc2ccccc2)c(O)c2ccccc21	-21	7	3912	3	0	-1	5.2
COc1ccc(C2C(C#N)=C(C)NC3=C2S(=O)(=O)c2ccccc23)cc1 (configuration not stated)	-23	0	4348	17	6	-6	3.7
COc1ccc(Oc2nc(-c3ccccn3)ncc2OC)cc1	-17	-4	3714	3	9	2	6.6
COc1ccc(OC)c(NC(=O)c2oc3ccccc3c2NC(=O)C2CC2)c1	2	-3	4812	1	0	7	-1.1
COc1ccc(C(=O)Nc2ccnn2C2CCN(Cc3cnn(C)c3)CC2)cc1	5	13	4569	5	0	5	3.7
COC(=O)c1sc(NC(=O)COc2ccc(C)cc2)nc1C	-8	-14	20397*	1	7	-2	1.3
O=C(COC(=O)c1n[nH]c2ccccc12)c1ccc(F)c(F)c1	-11	5	6095	-2	3	1	2.9
C[C@@H](C(=O)NCc1ccccn1)[C@H]1C[C@]1(C)[C@H](NC(=O)OCc1ccccc1)c1ccccc1	-17	.	4359	.	.	5	.
CC(=O)C[C@H]1c2cc(C(F)(F)F)ccc2S(=O)(=O)N1Cc1ccccc1	-7	.	3926	.	.	0	.
CCOC(=O)c1oc2cccc(O)c2c1CN1CCOCC1	-17	1	8466	9	6	6	5.1
Cn1c(=O)n(C/C=C/c2ccccc2)c(=O)c2c1nc1n2CCCN1c1ccc(F)cc1	-14	-10	3773	7	11	0	-2.9
Cc1ccc(OCCNC(=O)CNC(=O)c2ccc(C)c(C)c2)cc1	-3	-5	6241	-5	-5	-6	-3.9
(listing goes on)
SMILES	PrP UTR inh	Sa ugtP lethal	Autofluor counter	Mtb hypoxia rep	Mtb hypoxia rep growth	BJeLR viability	Sa RN4220 lethal
Cc1nnc(NC2(C(F)(F)F)C(=O)Nc3c2c(=O)n(C)c(=O)n3C)s1 (configuration not stated)	-5	3	3458	.	.	-2	1.8
O=c1[nH]c(C(Cl)Cl)nc2sc3c(c12)CCN(Cc1ccccc1)C3	-1	-31	4543	0	5	2	9.9
CC(C)[C@@H](N)C(=O)NCC1CCC(C(=O)N[C@@H](Cc2ccccc2)C(=O)O)CC1 (some centres not stated)	-4	11	3691	9	-1	3	2.6
CCC(C)[C@H](NS(=O)(=O)c1ccc(C)cc1)C(=O)N1CCC(C(=O)N2CCC(C(=O)OC)CC2)CC1 (some centres not stated)	-7	0	4794	.	.	-4	-0.9
COc1ccc2cc(C(=O)NCC(=O)O)sc(=O)c2c1OC	-8	3	4509	7	6	-7	5.0
CC1(C)SC(=S)N(N=Cc2cccnc2)C1N(O)C(=O)Nc1ccccc1 (configuration not stated)	.	0	.	-13	12	.	0.2
O=[N+]([O-])c1ccc(CS(=O)(=O)N2CCN(c3ccccc3)CC2)cc1	-7	4	3616	-6	-3	-5	5.1
CSc1ccc(C=NNC(=O)CNc2ccc(C)cc2)cc1	.	3	.	0	6	.	0.4
CN(N)c1nc(-c2ccccc2)nnc1C(F)(F)F	-16	1	2100	.	.	-5	1.8
O=C(c1ccco1)N1CCN(Cc2cccc3ccccc23)CC1	-1	7	2964	4	2	-7	6.9
O=S(=O)(c1ccccc1Cl)N1CCCC1c1nc(-c2ccc(Cl)cc2)no1 (configuration not stated)	6	20	3108	8	1	1	6.6
NS(=O)(=O)c1ccccc1NC(=S)Nc1ccccc1S(N)(=O)=O	-17	8	3018	-12	0	-3	3.6
Cc1c(C2(O)CCCCC2)[nH]c2ncccc12	-16	-8	3790	7	8	.	-9.4
O=C(CC1CCCC1)Nc1cccc(Br)c1	-19	-6	6303	7	12	-9	0.2
CCOC(=O)c1c(NC(=O)CC)sc(C(=O)NC2CCCC2)c1C	-21	14	3912	19	13	-6	17
O=S(=O)(c1cccs1)N1CN(Cc2ccc(Cl)cc2)c2nc3ccccc3nc21	-33	-15	3065	-7	-7	.	1.0
O=C(Cn1nc(C(=O)O)c2ccccc2c1=O)NCc1ccco1	-17	14	3554	-1	25	6	6.5
O=C(Cc1ccc(S(=O)(=O)N2CCOCC2)s1)N(Cc1ccccc1)c1ccccc1	-23	11	.	-5	-1	-1	1.7
COc1ccc(N(CC(=O)N2CCN(c3cc(C)ccc3C)CC2)S(=O)(=O)c2c(C)noc2C)cc1	-21	11	5189	1	5	0	5.4
COc1ccc(Cl)cc1NC(=O)COC(=O)CCNS(=O)(=O)c1cccs1	-38	6	5348	0	3	.	-0.3

In the list so far, four have a COOH group:
SMILES	PrP UTR inh	Sa ugtP lethal	Autofluor counter	Mtb hypoxia rep	Mtb hypoxia rep growth	BJeLR viability	Sa RN4220 lethal
CC(CCc1ccccc1)NC(=O)CCC(=O)N1CCC(C(=O)O)CC1 (configuration not stated)	-12	16	3989	1	2	-1	4.0
CC(C)[C@@H](N)C(=O)NCC1CCC(C(=O)N[C@@H](Cc2ccccc2)C(=O)O)CC1 (some centres not stated)	-4	11	3691	9	-1	3	2.6
COc1ccc2cc(C(=O)NCC(=O)O)sc(=O)c2c1OC	-8	3	4509	7	6	-7	5.0
O=C(Cn1nc(C(=O)O)c2ccccc2c1=O)NCc1ccco1	-17	14	3554	-1	25	6	6.5

Next results follow.
SMILES	PrP UTR inh	Sa ugtP lethal	Autofluor counter	Mtb hypoxia rep	Mtb hypoxia rep growth	BJeLR viability	Sa RN4220 lethal
COc1ccc(NC(=S)Nc2ccc(S(=O)(=O)N3CCOCC3)cc2)c(OC)c1	-12	1	2151	4	2	-7	6.4
O=C(/C=C/c1ccco1)N1CCN(c2ccccc2)CC1	-12	-2	2331	11	7	-5	0.7
C=CCc1cccc(C=Nc2ncn[nH]2)c1O	.	10	.	3	8	.	7.5
CCn1c(SCC(=O)OC)nnc1-c1ccccc1	-20	-2	3540	7	2	-5	-0.6
O=C(Nc1cnn(Cc2ccc(F)cc2)c1)C(c1ccccc1)c1ccccc1	4	23	9051	4	10	-4	-6.5
COc1ccc(C(C)NC(=O)C23CC4CC(CC(C4)C2)C3)cc1OC (configuration not stated)	-26	10	3959	3	4	-8	2.6
Cc1ccc(S(=O)(=O)N2CCCC2C(=O)n2nc(C)cc2C)cc1 (configuration not stated)	-13	12	10464	3	3	10	4.5

Screening data: PubChem BioAssay, several laboratories
